Mtb H37Rv = M. tuberculosis H37Rv growth inhibitors, H37Rv strain (AID 1626); M. tuberculosis H37Rv growth inhibition; higher % means a stronger effect; inhibition, % at 10 µM; hits with a dose series show IC50 in µM; 220,000 tested, 0.95% active;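 active means confirmed in a dose series; inconclusive means inhibition above 80% but not taken into the dose series; inactive means below 80% or under 30% at every dose of the series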;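 further: bacteria incubated seven days before Alamar blue readout; 0% = bacteria only wells and 100% = bacteria with antibiotic wells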
YopH PTP inh = YopH tyrosine phosphatase inhibitors, primary screen, biochemical, fluorescence Ex485/Em525 | YopH tyrosine phosphatase [Yersinia enterocolitica] | inhibition, %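 (about 10 µM by stock and volumes)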 | 140,000 tested, 0.16% active | AID 898, 2007;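 active means inhibition of 50% or more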;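 further: controls were vehicle for no effect and minimum signal wells for full effect; inactives centre near -20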
Mtb bLac sens = beta-lactam sensitization of Mtb H37Rv, H37Rv; M. tuberculosis H37Rv growth with meropenem, percent inhibition; hits of this screen are not shown here; inhibition, % at 25 µM; 330,000 tested, 0.27% active;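 active means about 74% or more and at least 40 points above the plate without the antibiotic, then above 30% in a dose series; inconclusive means first-round hits that could not be retested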;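 further: growth measured after seven days incubation then overnight dye step; 0% = bacteria only wells and 100% = bacteria with antibiotic; twin plates without the antibiotic show which effects depend on it; some results filed as inactive read as strong as hits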
Arbovirus inh = antivirals against arbovirus infection, primary screen, cell-based, full library, 10K replicate subset. arbovirus infection cell-based antiviral screen. inhibition, % at 10 µM. 200,000 tested, 0.37% active;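 active means inhibition from about 30%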;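 further: bluetongue infection of BSR cells; cell survival read as ATP light after 72 h; 0% = infected wells without compound and 100% = uninfected wells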
RecA splice inh = Mtb RecA intein splicing inhibitors, primary screen, biochemical, fluorescence, HTS; AID 2221, 2009; inhibition, %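 (about 9 µM by stock and volumes)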; 290,000 tested, 0.75% active; Protein RecA (Mycobacterium tuberculosis (strain ATCC 25618 / H37Rv)), P9WHJ3; cell-free RecA intein splicing; in the data active means inhibition above about 30%; inconclusive means no clear call, values can overlap the other calls;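 further: 0% = vehicle wells and 100% = reference inhibitor control wells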
Target sequence (P9WHJ3 whole entry, looked up, canonical isoform): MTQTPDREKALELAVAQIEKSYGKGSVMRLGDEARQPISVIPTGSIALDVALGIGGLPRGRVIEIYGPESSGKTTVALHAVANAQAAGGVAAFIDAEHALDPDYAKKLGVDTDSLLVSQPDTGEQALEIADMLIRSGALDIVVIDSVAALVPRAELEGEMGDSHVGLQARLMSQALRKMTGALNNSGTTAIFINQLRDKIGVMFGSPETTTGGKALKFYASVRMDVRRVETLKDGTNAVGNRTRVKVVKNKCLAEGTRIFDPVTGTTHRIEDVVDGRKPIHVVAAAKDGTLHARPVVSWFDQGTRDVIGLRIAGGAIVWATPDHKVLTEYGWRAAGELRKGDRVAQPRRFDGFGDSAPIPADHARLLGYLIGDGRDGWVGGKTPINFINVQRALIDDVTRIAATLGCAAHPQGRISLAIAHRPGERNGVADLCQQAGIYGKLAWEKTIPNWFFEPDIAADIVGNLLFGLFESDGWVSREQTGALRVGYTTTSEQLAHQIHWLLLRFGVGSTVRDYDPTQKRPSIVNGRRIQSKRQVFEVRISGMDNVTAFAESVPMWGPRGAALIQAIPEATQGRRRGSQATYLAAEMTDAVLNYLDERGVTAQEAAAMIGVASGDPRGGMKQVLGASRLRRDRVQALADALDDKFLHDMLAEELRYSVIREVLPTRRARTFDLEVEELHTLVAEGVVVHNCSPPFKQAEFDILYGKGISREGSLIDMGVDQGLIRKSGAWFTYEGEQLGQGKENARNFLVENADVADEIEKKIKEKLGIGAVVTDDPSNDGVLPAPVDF
Arbovirus inh repeat = second read-out of Arbovirus inh, no call of its own (marks repeat the call); inhibition, %; measured here: 10K subset replicate screen; many hits read low in the repeat;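 first of two repeat runs on a subset; 0% = infected and 100% = uninfected wells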
Starred values were filed as active, the others as inactive; ? = inconclusive; / = not tested or not shown.

SMILES	Mtb H37Rv	YopH PTP inh	Mtb bLac sens	Arbovirus inh	RecA splice inh	others
Cc1ccc(-c2ccc(SCC(=O)N3CCc4ccccc43)nn2)cc1	-2%	-27	-5	-3	-0.1
CC(=NCC1CCCO1)c1c(O)n(-c2ccc(C)cc2)c(=O)[nH]c1=O (centres undefined)	-13%	-1	3	1	-3.5
COc1ccc(CNCc2cc(C)c(OC)cc2C)c(OC)c1	/	/	6	/	-0.5
CC(C)/C=C1\CCCCC1N(C)C(=O)NC(C)C (centres undefined)	-2%	2	3	8	5.1
CC(C)[C@H]1CN(C)CCN1Cc1cn(C)nc1-c1cccc(Cl)c1	-2%	/	1	-16	0.0
Cc1ccc(S(=O)(=O)CC(=O)Nc2ccc(S(=O)(=O)Nc3onc(C)c3C)cc2)cc1	-7%	-3	1	13	-0.6
O=S(=O)([N-]c1nc2ccccc2nc1-[n+]1ccc(-c2ccncc2)cc1)c1ccccc1	-4%	/	7	3	-0.3
O=c1c(Cl)c(NCc2ccc(F)cc2)cnn1C12CC3CC(CC(C3)C1)C2	5%	-22	5	-2	5.0
COC(=O)C1CSc2[nH]c(=O)sc2C1c1ccc(OC)c(OC)c1 (centres undefined)	-5%	33	-3	11	-3.4
CC1CCCC(NC(=O)CCCn2ncn3c(cc4occc43)c2=O)C1C (centres undefined)	/	/	4	/	2.7
NC(=O)C1CCN(C(c2ccccc2)c2nnnn2C2CCCC2)CC1 (centres undefined)	-8%	-7	-4	-1	-0.6
CCCNC(=O)CCc1c(C)nc2nc(-c3cc(OC)cc(OC)c3)nn2c1C	2%	-13	-18	5	0.2
CC(=O)Nc1ccc(S(=O)(=O)N2CCN(C(=O)c3ccccc3F)CC2)cc1	-8%	-101	6	-1	/
Cc1ccc(C23CC4CC(CC(C(=O)N5CCN(C)CC5)(C4)C2)C3)cc1	2%	/	-7	/	1.7
CC(=O)C1C(c2cccc(F)c2)NC(=O)NC1(O)C(F)(F)F (centres undefined)	/	-42	1	-4	0.1
CCN(CC)S(=O)(=O)c1ccc(OC)c(NC(=O)c2ccc(=O)[nH]c2)c1	-10%	/	-1	/	3.6
Cc1nc2c(=O)n(-c3ccc(F)c(Cl)c3)nc(C)c2s1	-5%	/	-17	/	0.9
Cc1cc(/C=C(\C#N)c2nnc(N3CCOCC3)n2-c2ccccc2)c(C)n1-c1ccccc1	5%	12	-10	-20	6.6
COc1cc(NC(=O)C2CSC3(C)CCC(=O)N23)c(OC)cc1Cl (centres undefined)	/	/	4	/	1.7
CCc1cccc(OCCOCCN2CCCC2)c1	-9%	-16	-11	0	/
Cc1cccc(N=Nc2c(C)nn(-c3ccccc3)c2N)c1C	3%	13	-7	3	4.6
O=C(NCc1ccccc1)C1CCC(CNS(=O)(=O)c2cccs2)CC1 (centres undefined)	/	/	-3	/	-1.6
N#CCC(=O)Nc1ccc(C(=O)N2CCN(c3ccccn3)CC2)cc1	/	/	-3	/	-1.3
Cc1ccc(NS(=O)(=O)c2c(C)[nH]c(C)c2C(=O)N2CCCCC2)cc1F	/	/	-4	/	2.0
CN1C(=O)C(CC(N)=O)N(NC(=O)c2ccc(Cl)cc2)C1=S (centres undefined)	0%	-5	0	9	0.6
COc1ccccc1NC(=O)CSc1nc(=O)n2cc(C)ccc2n1	/	/	-11	/	-1.3
C=CCNC(=S)Nc1cccc2[nH]ncc12	3%	/	-3	8	0.4
Cc1ccc(CN2CCN(CC(=O)N/N=C/c3ccccc3F)CC2)cc1	2%	/	4	/	-0.1
Cc1nc2c(O)cccc2cc1CO	6%	/	52	/	-3.4
CC(C)(C)NC(=O)C(=O)NNC(=O)c1ccccc1	/	-21	-1	4	-6.0
CC(=O)c1ccc(N2CCN(CN3C(=O)CC4(CCCC4)C3=O)CC2)c(F)c1	/	/	0	/	-3.6
CNC(=S)N1CCC(n2cnc3ccccc32)CC1	-1%	/	-8	5	1.1
O=C(Cc1nnc(NC(=O)c2cccc([N+](=O)[O-])c2)s1)NCc1ccccc1	/	/	-8	/	-2.8
Cc1nc(NC(=O)CN2CCC(O)(c3ccc(F)cc3)CC2)sc1C	1%	/	43	/	-0.9
O=c1cc(-c2ccccc2Cl)oc2c([N+](=O)[O-])c(O)cc(O)c12	-3%	-46	2	6	-1.8
Cc1cc(N2CCCC2)ccc1C=C(C#N)C#N	/	/	3	-8	0.4
Cc1ccc(-c2cc(C(=O)N/N=C/c3c(C)nn(C)c3C)c3ccccc3n2)cc1C	-2%	-25	32	8	-0.1
O=C(N/N=C1\CC2CC=CC12)c1ccccc1Cl (centres undefined)	-2%	/	-8	-2	-2.1
Cc1ccc(OCC(=O)N2CCc3ccccc3C2)c([N+](=O)[O-])n1	5%	/	8	8	1.6
COc1ccc(CCC(=O)NCc2cnn(C)c2)cc1	-10%	-21	-7	0	-0.2
CCCCn1c(N)c(N(CCC(C)C)C(=O)CCCc2nc3ccccc3s2)c(=O)[nH]c1=O	/	/	?	/	-0.1
CCOc1ccc(-c2cnc(N)n2C)cc1	6%	/	-1	1	6.1
CSc1ccc(Cl)c(C(=O)NCC(C)C)c1	4%	11	-10	3	1.1
CCOc1ccc(C2/C(=C(\O)c3ccc4c(c3)OCCO4)C(=O)C(=O)N2CCN2CCOCC2)cc1OCC (centres undefined)	/	/	-2	/	-2.6
Nc1ccc(C(=O)c2ccc3c(c2)OCCO3)cc1N	-7%	-11	-6	-9	-0.3	Arbovirus inh repeat=-4
COc1ccc(C2(O)CCN(C(=O)c3ccc4c(c3)OCO4)CC2)cc1	4%	-38	-13	-3	-1.6	Arbovirus inh repeat=-1
C#CCOCCOCCOCCNc1nc(N2CCN(C(=O)[C@H](Cc3ccc(O)cc3)n3cc([C@@H](N)C(C)CC)nn3)CC2)nc(N2CCN(C(=O)[C@H](Cc3cc4ccccc4[nH]3)n3cc([C@@H](N)Cc4ccc(O)cc4)nn3)CC2)n1 (some centres undefined)	/	/	92	/	0.8
CC(C)(C)NC(=O)NC(=O)CN1CCCCC1	6%	/	4	16	-2.1
CCOC(=O)Cn1c(-c2cccnc2Cl)nc2cc(C)c(C)cc21	0%	-4	-1	-1	-0.8
Cn1c(Br)nc2c1c(=O)n(Cc1ccccc1)c(=O)n2C	/	/	-8	/	2.1
COc1ccc(C2CC(c3ccc4ccccc4c3)=NN2C(=O)CSc2ncccn2)cc1 (centres undefined)	14%	-26	2	-12	8.3
CCN1C(=O)c2ccc(C(=O)NCc3ccc4c(c3)OCO4)cc2C1=O	-20%	-3	14	10	0.2
Cc1cc(OCC(=O)N2CCC(C(=O)O)(c3ccccc3)CC2)c2c(C)c(C)c(=O)oc2c1	/	/	-4	/	10
CCOC(=O)/C(C#N)=C\c1ccc(N2CCN(C/C=C/c3ccccc3)CC2)cc1	-1%	6	?	13	-8.6
CS(=O)(=O)Nc1cccc(C2=NN(C(=O)c3cccc(F)c3)C(c3cccs3)C2)c1 (centres undefined)	/	/	5	/	5.8
Cc1cc(NC(=O)CC(F)(F)F)n(-c2ccccc2)n1	-10%	/	-8	3	-1.9
Cc1ccc(/C(O)=C2/C(=O)C(=O)N(c3ccccn3)C2c2ccc(F)cc2)cc1 (centres undefined)	/	/	-3	/	6.6
CC(C)OC(=O)CSc1nnc(-c2cccnc2)n1Cc1ccccc1	-7%	-27	-1	4	-3.0
COc1cc(NS(=O)(=O)c2ccc(NC(=S)NC(=O)c3ccccc3)cc2)nc(OC)n1	/	/	-1	/	1.1
O=C(Nc1ccccc1)N1CCCN(c2ccc(C(F)(F)F)cc2[N+](=O)[O-])CC1	-2%	/	1	/	0.6

(list continues)
SMILES	Mtb H37Rv	YopH PTP inh	Mtb bLac sens	Arbovirus inh	RecA splice inh	others
Cc1n[nH]c(C)c1S(=O)(=O)N(CC(=O)N1CCc2ccccc21)c1ccc(C(C)C)cc1	10%	-17	1	-4	-0.8	Arbovirus inh repeat=-20
COc1cccc(-c2nnc(SCC(N)=O)n2-c2ccc(Cl)cc2)c1	-6%	11	2	-1	-0.6
Nc1nc2n(n1)C(c1cccs1)CC(c1ccccc1)N2 (centres undefined)	-13%	-9	-4	-7	1.6
CCC(=O)N1c2ccccc2NC2=C(C(=O)CCC2)C1c1ccccc1 (centres undefined)	-7%	-20	8	4	0.3
COc1ccc(CNC(=O)Cc2csc(NC(=O)Nc3ccccc3OC)n2)cc1	/	/	5	/	3.6
O=C(N/N=C/c1ccco1)c1ccc(NC(=O)C2CC2)cc1	9%	/	-2	-1	0.0
COc1ccc(-n2cnc3cc(NCc4cccs4)ccc32)cc1	/	4	97	5	15
C=CCOc1ccc(C(c2c(C)n(C)n(-c3ccccc3)c2=O)c2c(C)n(C)n(-c3ccccc3)c2=O)cc1	/	/	4	/	4.0
Cc1c(NC(=O)c2cccc(NC(=O)c3ccco3)c2)cccc1C(=O)O	-5%	-29	5	6	1.7
CCC(=Nc1cc(OC)ccc1OC)c1c(O)[nH]c(=O)[nH]c1=O	-11%	-6	3	-10	-2.6
COc1ccc(N(C)S(=O)(=O)c2ccc3c(c2)NC(=O)CC(=O)N3)c(OC)c1	/	/	-3	/	0.4
CCN(CC)C(=O)C1CC(=O)N(c2ccc(OC)cc2)C1c1ccc(OC)cc1 (centres undefined)	-5%	1	-1	-2	1.9
O=C1c2ccccc2-n2c1nc1ccccc1c2=O	<0.2µM*	/	98	-27	71*	Arbovirus inh repeat=-19
O=C(COc1cccnc1[N+](=O)[O-])N1CCc2ccccc21	3%	/	-4	4	-2.0
Cc1cc(C)c2c(N)c(C(=O)Nc3ccc(F)cc3)sc2n1	/	/	-1	/	-14
CCOC(=O)N1CCC(NC(=O)c2cccc3c2C(=O)N(CCOC)C3)CC1	-1%	-20	-1	-10	1.2
COc1cc2c(cc1OC)C(C1C(=O)CC(C)CC1=O)N(C(=O)CCl)CC2 (centres undefined)	80%	18	3	10	-8.0
CC1CCCCC1NC(=O)C1CCC(CNS(=O)(=O)c2ccccc2)CC1 (centres undefined)	/	/	7	/	-1.0
Cn1nnc2cc(C(=O)Nc3cccnc3)ccc21	2%	-15	-4	2	-0.1
CCOC(=O)C1=C(N)OC2=C(C(=O)CC(C)(C)C2)C1c1ccco1 (centres undefined)	-3%	-35	3	5	-0.3
Cc1ccc2[nH]c(=O)c(COC(=O)C3CCCCC3)cc2c1	-10%	/	-2	/	-1.2
O=C(CSc1nc2ncc(Cl)cc2[nH]1)NC1CCS(=O)(=O)C1 (centres undefined)	-9%	/	-12	11	0.0
CC(=O)Nc1ccc(S(=O)(=O)N2CCN(Cc3ccccn3)CC2)cc1	-8%	-30	-2	-3	-2.4
CCCCOc1ccc(CCN)cc1Cl	11%	-28	0	0	-4.9
CCN1C(=O)[C@H]2[C@@H](c3ccc(-c4ccccc4)cc3)N3CCC[C@@]3(C(=O)OC)[C@H]2C1=O	/	/	-7	/	6.2
C/C(=N\O)C1(C)N(O)C(C)(C)C(c2ccco2)=[N+]1[O-] (centres undefined)	-8%	-17	10	-2	-2.4
Nn1c(SCC(=O)Nc2ccc3c(c2)OCCO3)nncc1=O	/	/	5	/	-1.4
C=CCn1c(O)c(C(C)=NCc2cccnc2)c(=O)[nH]c1=O	-2%	5	4	2	4.7
COc1ccc(Oc2ccc(/C=N/NC(=O)c3cccnc3)cc2[N+](=O)[O-])cc1	11%	/	2	-9	5.4
CCOC(=O)N1CCN(C(=O)c2cc3cc(Cl)ccc3[nH]2)CC1	/	/	2	/	0.8
CC1(C)CC(=O)C(C(=O)c2ccccc2)C(=O)C1Cl (centres undefined)	/	/	-6	/	-2.5

Of the compounds above, these have two or more sulfur atoms.
SMILES	Mtb H37Rv	YopH PTP inh	Mtb bLac sens	Arbovirus inh	RecA splice inh	others
Cc1ccc(S(=O)(=O)CC(=O)Nc2ccc(S(=O)(=O)Nc3onc(C)c3C)cc2)cc1	-7%	-3	1	13	-0.6
COC(=O)C1CSc2[nH]c(=O)sc2C1c1ccc(OC)c(OC)c1 (centres undefined)	-5%	33	-3	11	-3.4
O=C(NCc1ccccc1)C1CCC(CNS(=O)(=O)c2cccs2)CC1 (centres undefined)	/	/	-3	/	-1.6
CS(=O)(=O)Nc1cccc(C2=NN(C(=O)c3cccc(F)c3)C(c3cccs3)C2)c1 (centres undefined)	/	/	5	/	5.8
COc1cc(NS(=O)(=O)c2ccc(NC(=S)NC(=O)c3ccccc3)cc2)nc(OC)n1	/	/	-1	/	1.1
O=C(CSc1nc2ncc(Cl)cc2[nH]1)NC1CCS(=O)(=O)C1 (centres undefined)	-9%	/	-12	11	0.0

These rows are one share of the data; the hit share may differ from the screen's.
